# TRPC6 inh: mouse TRPC6 channel inhibitors, primary screen, cell-based, HEK293, membrane potential dye. Short transient receptor potential channel 6 (Mus musculus), Q61143. ACh-evoked depolarization; stronger effect = lower value. B-score at 10 µM. 310,000 compounds, 1.1% hits. AID 2553, 2010;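 active = B-score under library mean minus 3 SD, initial fluorescence not abnormally high, positive integrated signal ratio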;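 also: B-score derived from integrated fluorescence ratio over the kinetic read; more negative B-score means stronger inhibition of depolarization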
# Platelet DG rel: inhibitors of platelet dense granule secretion, primary screen, cell-based, MLPCN, human platelets | human platelet-rich plasma, SFLLRN dense granule ATP release, luminescence | 300,000 compounds, 0.22% hits | AID 1663, 2009 | inhibition, %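 (compounds screened at 7.5 µM in platelet-rich plasma)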;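 active = mean replicate score, as percent of positive control, at or above 50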
# RGS4 act: RGS4 potentiators or activators, primary screen, cell-based, HEK293 M3R inducible RGS4, calcium flux. carbachol calcium flux Fluo4; stronger effect = lower value. B-score at 10 µM. 310,000 compounds, 0.92% hits. AID 463111, 2010;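 active = B-score of the integrated calcium signal more than 4 SD below the library mean, with starting fluorescence not abnormally high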;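 also: negative B-score means reduced calcium response which marks RGS4 activation or potentiation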
#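 Assay system: Inducible-RGS4 HEK293 cells carrying M3 receptor | Schedule: Compound preincubation 20 min at room temperature before agonist | Signal: Kinetic calcium fluorescence imaging with Fluo4-AM dye, 2 µM | Read-out basis: B score from integrated fluorescence ratio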
# TRPC4 block: inhibitors of mouse TRPC4 channel, primary screen, Fluo4 calcium, HEK293 TRPC4beta/mu-opioid cells | 300,000 compounds, 0.39% hits | B-score at 10 µM | DAMGO-evoked Fluo4 calcium flux; stronger effect = lower value | Short transient receptor potential channel 4 (Mus musculus), Q9QUQ5 | AID 2247, 2010;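 active = B-score over 3 SD under the library average, no early fluorescence shift, positive overall ratio signal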
# Target sequence (Q9QUQ5 whole entry, looked up): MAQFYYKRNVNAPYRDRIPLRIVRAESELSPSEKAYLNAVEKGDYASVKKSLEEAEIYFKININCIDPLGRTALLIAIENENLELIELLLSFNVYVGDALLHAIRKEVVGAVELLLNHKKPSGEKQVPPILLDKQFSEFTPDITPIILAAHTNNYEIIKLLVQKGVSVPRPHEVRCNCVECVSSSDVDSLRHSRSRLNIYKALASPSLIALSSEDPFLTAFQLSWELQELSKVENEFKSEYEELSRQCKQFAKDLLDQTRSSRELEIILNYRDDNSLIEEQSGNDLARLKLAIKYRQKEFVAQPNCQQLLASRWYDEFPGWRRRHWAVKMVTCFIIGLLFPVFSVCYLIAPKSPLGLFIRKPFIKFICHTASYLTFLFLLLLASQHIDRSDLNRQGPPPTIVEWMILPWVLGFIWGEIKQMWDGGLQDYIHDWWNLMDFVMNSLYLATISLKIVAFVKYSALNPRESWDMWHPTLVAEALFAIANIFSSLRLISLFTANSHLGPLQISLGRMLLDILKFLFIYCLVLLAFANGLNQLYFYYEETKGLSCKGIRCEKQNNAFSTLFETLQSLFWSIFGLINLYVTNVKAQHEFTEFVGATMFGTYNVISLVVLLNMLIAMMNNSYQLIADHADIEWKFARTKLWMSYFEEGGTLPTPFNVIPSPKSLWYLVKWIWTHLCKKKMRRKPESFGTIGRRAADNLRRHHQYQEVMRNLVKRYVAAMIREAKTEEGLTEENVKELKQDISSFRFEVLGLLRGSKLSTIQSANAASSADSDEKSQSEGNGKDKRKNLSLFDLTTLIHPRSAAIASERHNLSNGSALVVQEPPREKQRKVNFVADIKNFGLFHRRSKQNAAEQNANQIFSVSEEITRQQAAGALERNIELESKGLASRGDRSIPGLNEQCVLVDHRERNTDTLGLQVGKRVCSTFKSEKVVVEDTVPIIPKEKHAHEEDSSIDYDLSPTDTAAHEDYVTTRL
#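 Assay system: HEK293 cells with stable TRPC4beta plus mu-opioid receptor expression; Probe or stimulus: DAMGO in two steps, submaximal then maximal; Dosing: single-point compound dosing; Measured by: Fluo4 calcium-dye fluorescence, kinetic read; Read-out basis: B score from integrated Fluo4 fluorescence ratio.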
# MrgX1 antag: antagonists of human MrgX1 receptor, primary screen, HEK293 cells, Fluo-4 calcium flux; Mas-related G-protein coupled receptor member X1 (Homo sapiens), Q96LB2; BAM8-22 antagonism; stronger effect = lower value; B-score at 10 µM; 310,000 compounds, 1.3% hits;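 active = calcium-response B-score plate-corrected more than 3 library SD below zero, starting fluorescence within 5 deviations, no agonist response on first addition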;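 also: peak minus trough fluorescence over baseline after final BAM8-22 challenge near maximal dose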
# SKKanGAS inh: S. pyogenes SKKanGAS growth inhibitors in kanamycin, primary screen, streptokinase expression inhibitor project, SKKanGAS strain, BacTiter-Glo luminescence; 300,000 compounds, 1.3% hits; inhibition, % at 7.5 µM; 6 h;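 active = mean replicate score, as percent of positive control median, at least 50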;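 also: strain carries kanamycin resistance gene driven by streptokinase promoter and grows in 40 µg/ml kanamycin; loss of luminescence reflects streptokinase promoter inhibition or plain growth inhibition; 0% = median of DMSO wells and 100% = positive control at its reference dose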
# RGS4 inh: RGS4 inhibitors, primary screen, cell-based, HEK293 M3R inducible RGS4, calcium flux. Regulator of G-protein signaling 4 (Homo sapiens), P49798. Fluo-4 calcium flux; stronger effect = higher value; triggered by carbachol at its EC20. B-score at 10 µM. 310,000 compounds, 0.45% hits;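 active = B-score, a plate-corrected calcium signal, over three deviations above library mean, with baseline fluorescence within five deviations of library mean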;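 also: RGS4 expression induced by doxycycline in cells with stable M3 receptor; B-score is computed from the integrated fluorescence ratio over baseline after carbachol; higher B-score means a larger calcium signal and so more RGS4 inhibition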
# MrgX1 ag: agonists of human MrgX1 receptor, primary screen, HEK293 cells, Fluo-4 calcium flux; B-score at 10 µM; 310,000 compounds, 0.44% hits; Mas-related G-protein coupled receptor member X1 (Homo sapiens), Q96LB2; Fluo-4 calcium fluorescence, agonist mode; stronger effect = higher value; AID 588627, 2011;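 active = calcium response B-score plate-corrected fluorescence ratio at least 3 library SD, with starting fluorescence B-score inside 5 SD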
#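 Test system: HEK293 cells stably expressing human MrgX1 receptor; Input: fifteen thousand cells per well; Dosing: compound delivered in addition one of three; Schedule: overnight seeding, then 1 h dark dye loading; Technique: Fluo-4 NW calcium fluorescence; Measure: B-scored fluorescence response ratio; Controls: positive and negative controls per plate.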
# TRPC6 activator: mouse TRPC6 channel activators, primary screen, cell-based, HEK293, membrane potential dye; HEK293-TRPC6 membrane potential dye fluorescence; stronger effect = higher value; B-score at 10 µM; Short transient receptor potential channel 6 (Mus musculus), Q61143; 310,000 compounds, 0.13% hits;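 active = B-score of the integrated fluorescence ratio above library mean plus 3 SD, and starting fluorescence ratio within library mean plus 5 SD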;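 also: higher score means more depolarization so channel activation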
# MrgX1 PAM: positive allosteric modulators of MrgX1, primary screen, HEK293 cells, Fluo-4 calcium flux; AID 588675, 2011; B-score at 10 µM; 310,000 compounds, 0.63% hits; FDSS; stronger effect = higher value; Mas-related G-protein coupled receptor member X1 (Homo sapiens), Q96LB2;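 active = plate-corrected calcium response at least 3 library SD above typical, normal starting fluorescence, not activating the receptor alone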;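 also: compound read alongside a low EC10 to EC30 dose of BAM8-22 agonist; peak minus trough fluorescence over baseline measured at the second addition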
# * hit, by the source's call; i = inactive; . = no result given. Not all compounds are listed, so the mix of outcomes need not match the whole.
SMILES,TRPC6 inh,Platelet DG rel,RGS4 act,TRPC4 block,MrgX1 antag,SKKanGAS inh,RGS4 inh,MrgX1 ag,TRPC6 activator,MrgX1 PAM
Cc1cc(N2C(=O)C(=O)/C(=C(/O)c3ccc(F)cc3)C2c2cccc(Br)c2)no1 (stereo not drawn),i,8,i,i,i,20,i,i,i,i
CCN(CC)CCN1C(=O)C(O)=C(C(=O)c2cccs2)C1c1ccccn1 (stereo not drawn),i,-22,i,i,i,5,i,i,i,i
COc1ccc(OCC(O)CN2C(=O)NC(C)(C)C2=O)cc1 (stereo not drawn),i,-3,i,i,i,-2,i,i,i,i
Cn1c(SCC(=O)N2CCOCC2)nnc1-c1ccc(Cl)cc1Cl,i,-3,i,i,i,-5,i,i,i,i
CN(C)/C=C1\N=C(c2ccc(Cl)cc2Cl)OC1=O,i,-3,i,i,i,-11,i,i,i,i
CC1(C)Cc2c(c(-c3ccccc3Cl)[nH]c(=O)c2C#N)CO1,i,11,i,i,i,1,i,i,i,i
COC(=O)c1ccc(C2/C(=C(\O)c3ccc4c(c3)OCCO4)C(=O)C(=O)N2CCCN(C)C)cc1 (stereo not drawn),i,-6,i,i,i,-2,i,i,i,i
CCN1CCc2c(C#N)c(N3CCOCC3)nc(NCCO)c2C1,i,7,i,i,i,-5,i,i,i,i
CCN1CCc2c(C#N)c(N3CCCCC3)nc(NCc3ccccc3)c2C1,i,-1,i,i,i,-1,i,i,i,i
CCOC(=O)C1=C(CSc2nc(-c3ccncc3)ccc2C#N)OC(N)=C(C#N)C1c1cccnc1 (stereo not drawn),i,.,i,i,i,0,i,i,i,i
CCCCOc1ccc(C(=O)Nn2cnnc2)cc1,i,3,i,.,i,4,i,i,i,i
CCOC(=O)c1n[nH]c2ccccc12,i,-8,i,i,i,5,i,i,i,i
CCCCC(CCC(=O)Nc1ccc(C(=O)OCC)cc1)C(=O)O (stereo not drawn),i,0,i,i,i,5,i,i,i,i
COCCN(Cc1ccccc1)P(=O)(O)c1ccccc1OCC(=O)O,i,-5,i,i,i,-6,i,i,i,i
COC(=O)C/C=C/[C@@H](C)[C@@H](/C=N/OCC[C@@H]1C=C[C@H](OC(C)=O)[C@@H](COC(C)=O)O1)NS(=O)(=O)c1ccc(C)cc1,i,1,i,i,i,15,i,i,i,i
COCc1[nH]nc2c1C(c1ccc(OC)cc1)C(C#N)=C(N)O2 (stereo not drawn),i,1,i,i,i,8,i,i,i,i
CC(=O)OCC(=O)[C@@]1(O)CCC2C3CCC4=CC(=O)CCC4(C)C3C(=O)CC21C (stereo partly drawn),i,1,i,i,.,-5,i,.,i,.
CCCCC1(C(=O)OCC)CC(CN2CCOCC2)OC1=O (stereo not drawn),i,2,i,i,i,0,i,i,i,i
Cc1nc2c(o1)CCc1ccccc1C2O (stereo not drawn),i,8,i,i,i,-5,i,i,i,i
Cc1nc(-c2ccccc2)c(Cc2ccccc2O)c(=O)[nH]1,i,-1,i,i,i,5,i,i,i,i

# Structures shown so far with a COOH group:
SMILES,TRPC6 inh,Platelet DG rel,RGS4 act,TRPC4 block,MrgX1 antag,SKKanGAS inh,RGS4 inh,MrgX1 ag,TRPC6 activator,MrgX1 PAM
CCCCC(CCC(=O)Nc1ccc(C(=O)OCC)cc1)C(=O)O (stereo not drawn),i,0,i,i,i,5,i,i,i,i
COCCN(Cc1ccccc1)P(=O)(O)c1ccccc1OCC(=O)O,i,-5,i,i,i,-6,i,i,i,i

# Copied from the results shown for reference:
SMILES,TRPC6 inh,Platelet DG rel,RGS4 act,TRPC4 block,MrgX1 antag,SKKanGAS inh,RGS4 inh,MrgX1 ag,TRPC6 activator,MrgX1 PAM
COc1ccc(OCC(O)CN2C(=O)NC(C)(C)C2=O)cc1 (stereo not drawn),i,-3,i,i,i,-2,i,i,i,i
Cn1c(SCC(=O)N2CCOCC2)nnc1-c1ccc(Cl)cc1Cl,i,-3,i,i,i,-5,i,i,i,i
CN(C)/C=C1\N=C(c2ccc(Cl)cc2Cl)OC1=O,i,-3,i,i,i,-11,i,i,i,i
CC1(C)Cc2c(c(-c3ccccc3Cl)[nH]c(=O)c2C#N)CO1,i,11,i,i,i,1,i,i,i,i
COC(=O)c1ccc(C2/C(=C(\O)c3ccc4c(c3)OCCO4)C(=O)C(=O)N2CCCN(C)C)cc1 (stereo not drawn),i,-6,i,i,i,-2,i,i,i,i
CCN1CCc2c(C#N)c(N3CCOCC3)nc(NCCO)c2C1,i,7,i,i,i,-5,i,i,i,i
CCN1CCc2c(C#N)c(N3CCCCC3)nc(NCc3ccccc3)c2C1,i,-1,i,i,i,-1,i,i,i,i
CCOC(=O)C1=C(CSc2nc(-c3ccncc3)ccc2C#N)OC(N)=C(C#N)C1c1cccnc1 (stereo not drawn),i,.,i,i,i,0,i,i,i,i
CCCCOc1ccc(C(=O)Nn2cnnc2)cc1,i,3,i,.,i,4,i,i,i,i
CCOC(=O)c1n[nH]c2ccccc12,i,-8,i,i,i,5,i,i,i,i
CCCCC(CCC(=O)Nc1ccc(C(=O)OCC)cc1)C(=O)O (stereo not drawn),i,0,i,i,i,5,i,i,i,i
COCCN(Cc1ccccc1)P(=O)(O)c1ccccc1OCC(=O)O,i,-5,i,i,i,-6,i,i,i,i
COC(=O)C/C=C/[C@@H](C)[C@@H](/C=N/OCC[C@@H]1C=C[C@H](OC(C)=O)[C@@H](COC(C)=O)O1)NS(=O)(=O)c1ccc(C)cc1,i,1,i,i,i,15,i,i,i,i
COCc1[nH]nc2c1C(c1ccc(OC)cc1)C(C#N)=C(N)O2 (stereo not drawn),i,1,i,i,i,8,i,i,i,i
CC(=O)OCC(=O)[C@@]1(O)CCC2C3CCC4=CC(=O)CCC4(C)C3C(=O)CC21C (stereo partly drawn),i,1,i,i,.,-5,i,.,i,.
